T cruzi inh = inhibitors of intracellular T. cruzi growth, primary screen, luminescence, NIH3T3 host cells | T. cruzi beta-gal in NIH3T3, 90 h | inhibition, % (concentration not given with the values) | 300,000 tested, 1.4% active;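 active means mean inhibition across valid replicates above about 55%, limit read from the data; inconclusive means mean below that limit but half or more replicates reach it; inactive means mean below it, under half of replicates reach it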;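 further: signal also drops with host cell toxicity which is not excluded here; 0% = plate median of DMSO wells and 100% = zero luminescence signal; higher percent means less beta-gal luminescence so fewer parasites; stock transfer was 50 nL into about 50 µL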
A1 inh = caspase 3/7 activation in MEF A1-2A-BIM cells, primary screen, A1 inhibitor project, cell-based, luminescence, HTS; Caspase-Glo 3/7 luminescence, 3 h; percent of clofoctol response, vehicle zero; AID 2462, 2010; caspase activation, % (no concentration beside the values); 330,000 tested, 0.066% active;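 active means over half of replicate activation scores above 10%, or exactly half above 10 with the replicate mean above 10; inconclusive means replicate mean below 10 yet half the replicates above 10; inactive means over half of replicates below 10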;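 further: wells of about 30 µL received 50 nL stock; many hits fall short of the cut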
E coli growth = E. coli growth inhibition, primary screen, OD600; Escherichia coli growth, 23 h; hits give low values; OD600 absorbance (test concentration not listed); 330,000 tested, 0.21% active; AID 1053175, 2014;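 active means OD600 absorbance below the run mean of sample wells minus 3.6 SD, in any replicate, cut at about 0.56 in these data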;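 further: stock transfer was 300 nL into about 60 µL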
AF4-AF9 inh = inhibitors of AF4 peptide binding to AF9, primary screen, biochemical, AlphaScreen, biotin-AF4 peptide, FLAG-AF9, single point. Protein AF-9 (Homo sapiens), P42568. inhibition, % at 10 µM. 350,000 tested, 0.47% active;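 active means every replicate reaching a set inhibition limit, whatever the replicate mean, cut at about 25% in these data; inconclusive means mean inhibition reaches that limit but some replicates miss it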;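 further: 0% = plate neutral control median and 100% = total signal loss; the record names both 10 and 1 µM as test concentration; the first replicate is given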
Target sequence (P42568 whole entry, looked up): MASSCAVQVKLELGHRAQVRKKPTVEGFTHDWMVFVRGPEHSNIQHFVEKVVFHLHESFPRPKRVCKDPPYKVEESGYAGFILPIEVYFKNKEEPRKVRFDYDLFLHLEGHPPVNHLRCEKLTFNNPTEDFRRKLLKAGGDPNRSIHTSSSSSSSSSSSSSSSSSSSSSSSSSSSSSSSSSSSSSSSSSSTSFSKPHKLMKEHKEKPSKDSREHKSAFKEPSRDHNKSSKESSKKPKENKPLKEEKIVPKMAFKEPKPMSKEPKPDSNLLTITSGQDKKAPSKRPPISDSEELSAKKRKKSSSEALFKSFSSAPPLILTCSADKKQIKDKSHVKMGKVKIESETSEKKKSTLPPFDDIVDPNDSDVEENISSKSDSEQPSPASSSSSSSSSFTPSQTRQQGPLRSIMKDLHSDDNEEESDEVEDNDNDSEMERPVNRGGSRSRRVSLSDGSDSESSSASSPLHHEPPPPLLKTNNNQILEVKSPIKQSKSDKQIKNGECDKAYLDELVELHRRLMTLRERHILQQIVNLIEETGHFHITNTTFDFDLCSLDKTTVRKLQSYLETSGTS
Beta apoptosis = inhibitors of cytokine-induced beta cell apoptosis, primary screen, luminescence; 300,000 tested, 0.8% active; INS-1E cytokine-induced death, ATP luminescence, 48 h; percent of positive-control rescue, neutral wells zero; AID 435005, 2010; protection from apoptosis, % (concentration not given with the values);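 active means all replicates at 75% or more, or half of them and the mean; inconclusive means half reach 75% but not the mean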;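 further: 0% = cytokine-treated negative control wells and 100% = positive control rescue; higher means more ATP so stronger rescue from cytokine killing; wells of about 40 µL received 100 nL stock; the first replicate is given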
UCH37 DUB inh = inhibitors of human UCH37 deubiquitinase, primary screen, biochemical, Ub-AMC cleavage, fluorescence | Ubiquitin carboxyl-terminal hydrolase isozyme L5 (Homo sapiens), Q9Y5K5 | purified proteasome/UCH37 | inhibition, % (no concentration beside the values) | 330,000 tested, 0.33% active | AID 588478, 2011;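 active means mean of two replicates above 20%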;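 further: 0% = compound-free wells with enzyme and 100% = wells lacking proteasome; stock transfer was 100 nL into about 20 µL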
Target sequence (Q9Y5K5 whole entry, looked up): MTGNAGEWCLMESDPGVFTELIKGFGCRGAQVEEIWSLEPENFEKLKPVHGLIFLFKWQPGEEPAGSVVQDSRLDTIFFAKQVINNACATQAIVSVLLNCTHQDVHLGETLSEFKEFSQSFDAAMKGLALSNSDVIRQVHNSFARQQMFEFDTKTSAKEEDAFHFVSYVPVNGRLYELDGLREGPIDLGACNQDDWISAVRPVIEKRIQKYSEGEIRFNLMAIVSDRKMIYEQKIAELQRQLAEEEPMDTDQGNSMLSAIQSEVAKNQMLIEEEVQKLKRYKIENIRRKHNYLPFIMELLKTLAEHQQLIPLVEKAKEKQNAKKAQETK
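system = Proteasome-associated human UCH37 deubiquitinase | amount = 0.15 nM proteasome as dispensed | medium = pH 7.4 Tris-HCl (50 mM) with ovalbumin, ATP-MgCl2, DTT | incubation = 30 min preincubation with enzyme, 25 min cleavage at room temperature | detection = AMC fluorescence 355/460 nm | read-out basis = percent inhibition | controls = no-proteasome and no-compound wells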
rRNA inh HTS = reduced GFP signal of wild-type E. coli, primary screen, bacterial rRNA inhibitor project, GFP/RFP fluorescence, OD600, single point | GFP signal change (wild-type ribosome), % (concentration not given with the values) | E. coli WT GFP vs humanized-ribosome RFP mutants, 24 h; hits give low values; DMSO median 0, no signal -100 | 350,000 tested, 1.6% active;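 active means significant combined selectivity score with lowered wild-type GFP, culture density cut under 30%, mutant RFP and density less affected; inactive means any of these conditions unmet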; further: one replicate is shown; some compounds called inactive have numbers as strong as hits
FGF22 binding = binders of human FGF22 protein, primary screen, FGF22 synaptogenesis inhibitor project, biophysical, thermal shift, single point; recombinant FGF22 thermal shift, SYPRO orange fluorescence; percent of sucrose octasulfate shift, DMSO zero; calls only at 9.99 µM; 340,000 tested, 1.5% active; AID 651658, 2012;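 active means melting point raised past a set limit in the mean and every replicate; inconclusive means no clear call; three in four hits are not shown here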
Target sequence (Q9HCT0 whole entry, looked up): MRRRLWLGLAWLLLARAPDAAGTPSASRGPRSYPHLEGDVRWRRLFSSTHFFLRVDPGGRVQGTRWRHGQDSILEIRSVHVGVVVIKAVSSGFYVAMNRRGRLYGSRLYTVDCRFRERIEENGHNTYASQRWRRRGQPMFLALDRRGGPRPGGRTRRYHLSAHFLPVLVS
rRNA inh HTS OD600 = also measured in rRNA inh HTS; calls as there; OD600 change, %; measured here: OD600 growth;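 optical density of the mix in the first replicate; 0 = DMSO median and -100 = no signal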
rRNA inh HTS RFP = recorded beside rRNA inh HTS, whose call it bears; RFP signal change, %; measured here: RFP humanized mutant strains;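 first replicate; 0 = DMSO median and -100 = no signal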
Active calls of the source: *; i = inactive; ? = inconclusive; . = not tested or not shown.

SMILES	T cruzi inh	A1 inh	E coli growth	AF4-AF9 inh	Beta apoptosis	UCH37 DUB inh	rRNA inh HTS	rRNA inh HTS OD600	rRNA inh HTS RFP	FGF22 binding
O=C1CN(C(=O)COc2cccc(F)c2)c2ccccc2N1	3	-0.1	0.68	-5.5	5	2.9	4	13	2.8	i
COc1ccc(Oc2ccc(NC(=O)c3ccccc3C)cc2)cc1	-5	2.1	0.75	-0.2	16	0.3	-9	-7	-1.3	i
CC(C)C[C@H](NC(=O)Nc1cccc(Cl)c1)C(=O)O	-32	-0.4	.	.	0	0.1	.	.	.	.
CCC(C)(C(=O)NC1CCCCC1)N(Cc1cccs1)C(=O)c1ccccn1 (centres undefined)	-4	-0.2	0.72	-0.1	-10	3.8	10	4	0.5	i
CCOc1ccc(Nc2nc(N3CCOCC3)nc(N3CCOCC3)n2)cc1	22	-1.3	0.65	-2.5	0	2.8	1	2	-5.6	i
COCCn1c(SCC(=O)N2CCOCC2)nnc1-c1ccco1	-11	0.0	0.68	-0.1	3	0.9	3	9	2.4	i
CC(C)COC(=O)NCCCOC(=O)Nc1ccccc1	-10	-0.5	0.7	.	-2	4.3	.	.	.	.
COc1ccc(NC(=O)c2cc(C(C)C)on2)cc1OC	-2	0.0	0.7	.	7	1.7	.	.	.	.
COc1ccc(OC)c(-c2csc(NC(=O)Cn3[nH]c(=O)c4ccccc4c3=O)n2)c1	12	-0.2	0.71	-1.2	23	0.2	-12	14	18	i
COCCCN(CC(=O)NCc1ccccc1)S(=O)(=O)c1ccc(C)cc1	2	0.2	0.66	-1.3	0	0.2	0	0	-5.3	i
Brc1ccsc1-c1csc(-c2ccncc2)n1	21	-3.4	0.67	1.9	-4	-0.3	-7	-26	-0.3	i
O=C(COC(=O)C1CC2C=CC1C2)NCc1ccccc1Cl (centres undefined)	5	-0.1	0.7	.	-10	5.1	.	.	.	.
C=CCSc1nc(N)c(C(=O)Nc2ccccc2C)cc1C(N)=O	-11	0.4	0.71	.	10	4.8	.	.	.	.
CC(=O)Nc1ccc(NC(=O)C(C)OC(=O)CCc2nc3ccccc3s2)cc1 (centres undefined)	-16	0.3	0.72	-4.4	-7	1.1	0	-8	-3.1	i
Cc1ccc(C(=O)Nc2ccccc2N2CCCCC2)o1	13	-0.2	0.67	2.1	-7	-2.0	-53	-80	-15	i
Cc1ccc(CNC(=O)Nc2ccccc2)n1C	1	-0.1	0.68	4.8	-5	3.2	24	9	2.4	i
CCOC(=O)c1cc(Sc2ccccc2N)cc(C(=O)OCC)n1	2	2.0	0.69	-2.1	-4	1.1	7	1	-2.6	i
CSc1ccc(CN(C)C(C)C(=O)NCC2CCCCC2)cc1 (centres undefined)	32	0.3	0.71	3.2	-2	5.8	-7	-15	4.1	i
Cc1cc(C)n2nc(C(=O)NC(C)(C)C)nc2n1	-13	-0.4	0.7	.	-1	-2.4	.	.	.	.
COc1ccc(N2C(=O)c3ccccc3NC2c2ccc(NC(C)=O)cc2)c(OC)c1 (centres undefined)	12	0.2	0.65	0.1	0	-287	25	7	4.1	i
CC(C)S(=O)(=O)c1cnc(-c2cccnc2)nc1N	-15	-0.3	0.66	.	-3	4.0	6	5	-1.6	i
CC1(C)Cc2cccc(OCC(=O)N3CCN(c4cccc(C(F)(F)F)c4)CC3)c2O1	22	1.8	0.68	16	5	3.1	-16	-16	1.0	i
COc1ccc(S(=O)(=O)N2CCCCC2)cc1NS(=O)(=O)c1cc(Cl)ccc1Cl	-5	0.0	0.69	.	-3	1.6	.	.	.	.
Cc1ccc(CN(C)C(=O)c2ccccc2Sc2ccccc2C#N)cc1	44	-0.1	0.7	1.7	-2	2.3	-39	-49	-4.1	i
COc1ccc(S(=O)(=O)n2nc(OC(C)=O)cc2N)cc1	-11	0.5	0.7	0.4	-1	8.4	9	4	0.4	i

Additional records.
SMILES	T cruzi inh	A1 inh	E coli growth	AF4-AF9 inh	Beta apoptosis	UCH37 DUB inh	rRNA inh HTS	rRNA inh HTS OD600	rRNA inh HTS RFP	FGF22 binding
CCCCN1C=C(C(=O)OC)C(c2ccccc2C(F)(F)F)C(C(=O)OC)=C1	10	-0.2	0.74	.	1	-254	.	.	.	.
CC1CCN(Cc2nc(-c3ccc(Cl)cc3)no2)CC1	-5	-0.1	0.71	.	-19	1.1	-9	-8	2.2	i
CC(=O)N/C(=C\c1ccccc1)C(=O)OCCCOC(=O)/C(=C/c1ccccc1)NC(C)=O	3	0.6	0.71	0.0	-4	2.1	9	8	2.0	i
Nc1nc(CN2CCCCCC2)nc(Nc2ccc(F)cc2)n1	-2	0.2	0.72	.	-7	1.9	.	.	.	.
COc1ccccc1-c1c(C)nn2c(N3CCN(c4ccccc4OC)CC3)cc(C)nc12	19	0.8	0.73	7.6	-10	-26	12	11	0.4	i
O=C(COc1ccccc1)Nc1ccc(S(=O)(=O)N2CCCC2)cc1	-6	.	0.75	-1.9	.	11	-6	-7	-2.5	i
COC(=O)C12CCC(C)(c3nc4ccccc4nc31)C2(C)C (centres undefined)	6	-0.4	0.67	-0.1	-3	4.0	2	2	-0.9	i
CCCc1nc2oc3c(NCC4CCCO4)ncnc3c2c2c1COC(C)(C)C2 (centres undefined)	10	0.5	0.72	.	-3	-60	.	.	.	.
N=c1n(CCN2CCCCC2)c2ccccc2n1CC(O)c1ccc(Cl)c(Cl)c1 (centres undefined)	59*	-0.9	0.52	.	59	16	.	.	.	.
Cc1ccc(S(=O)(=O)CCC(=O)OCC(=O)N2CCN(S(=O)(=O)c3ccc(Cl)cc3)CC2)cc1	-13	0.5	0.69	-0.9	-2	5.3	25	19	2.0	i
O=S1(=O)CCOC[C@H](CC2CCCCC2)N1Cc1cccc(Cl)c1	30	?	.	-5.2	-5	1.6	-7	-26	-6.6	i
CC(C)(C)C(=O)Nc1ccc(Oc2ccc3c(c2)C(=O)N(c2ccc(O)cc2)C3=O)cc1	-12	0.1	0.67	.	-1	2.3	.	.	.	.
CC1CCC(NC(=O)C2c3ccccc3C(=O)N2CCCN2CCOCC2)CC1 (centres undefined)	-13	1.3	0.69	.	-6	0.6	.	.	.	.
CCOCC(=O)Nc1cc(Cl)ccc1C	3	1.5	0.67	0.8	-8	-0.3	1	9	-5.5	.
O=C(CN1C(=O)C2CC=CCC2C1=O)Nc1ccc(-c2nnc3n2CCCCC3)cc1 (centres undefined)	1	-0.9	0.73	.	-1	1.0	.	.	.	.
COCCCn1c(C)cc(C(=O)COC(=O)CCc2nc3ccccc3c(=O)[nH]2)c1C	1	-0.6	0.67	3.7	-1	5.1	-27*	-5.2*	3.1*	i
O=C(c1ccco1)N1CCN(S(=O)(=O)c2ccc(Cl)s2)CC1	5	-0.2	0.69	1.8	3	5.6	-6	-14	-6.8	i
O=C(CSc1ncccn1)NCc1ccccc1	-8	-0.5	0.71	.	3	1.1	.	.	.	.
COc1cc(C(=O)Nc2cc(C)ccn2)cc(OC)c1OC	8	-1.0	0.67	.	.	4.0	.	.	.	.
COc1ccc(/C=C2/SC(=O)N(CC(=O)NCCC(C)C)C2=O)cc1OC	3	-0.8	0.67	0.0	-1	-20	.	.	.	i
CC1(C)CC(=O)C2=C(C1)Oc1ncn(CCCn3ccnc3)c(=N)c1C2c1ccccc1 (centres undefined)	25	0.1	0.69	.	-21	0.6	.	.	.	.
Cc1nn(-c2ccccc2)c2c1C(c1cccnc1)N1C=C(S(=O)(=O)N3CCCCC3)C=CC1=N2 (centres undefined)	45	-3.6	0.75	.	11	8.1	.	.	.	.
Cc1ccc(NC(=O)C(c2ccccc2)N2CCN(C(=O)c3ccco3)CC2)cc1 (centres undefined)	.	0.3	0.68	1.2	6	3.2	-4	-6	2.4	i
O=C(NC(C(=O)c1ccccc1)n1ccc(=O)[nH]c1=O)c1ccccc1 (centres undefined)	-12	-0.6	0.71	.	-6	2.2	.	.	.	.
COc1ccc(C2C(C(=O)c3cccs3)=C(O)C(=O)N2c2cccc(C)n2)cc1OC (centres undefined)	-12	0.3	0.64	-1.0	-4	16	.	.	.	i

Entries shown so far that have a thiophene ring, fused or not, in the order listed:
SMILES	T cruzi inh	A1 inh	E coli growth	AF4-AF9 inh	Beta apoptosis	UCH37 DUB inh	rRNA inh HTS	rRNA inh HTS OD600	rRNA inh HTS RFP	FGF22 binding
CCC(C)(C(=O)NC1CCCCC1)N(Cc1cccs1)C(=O)c1ccccn1 (centres undefined)	-4	-0.2	0.72	-0.1	-10	3.8	10	4	0.5	i
Brc1ccsc1-c1csc(-c2ccncc2)n1	21	-3.4	0.67	1.9	-4	-0.3	-7	-26	-0.3	i
O=C(c1ccco1)N1CCN(S(=O)(=O)c2ccc(Cl)s2)CC1	5	-0.2	0.69	1.8	3	5.6	-6	-14	-6.8	i
COc1ccc(C2C(C(=O)c3cccs3)=C(O)C(=O)N2c2cccc(C)n2)cc1OC (centres undefined)	-12	0.3	0.64	-1.0	-4	16	.	.	.	i

Carrying on.
SMILES	T cruzi inh	A1 inh	E coli growth	AF4-AF9 inh	Beta apoptosis	UCH37 DUB inh	rRNA inh HTS	rRNA inh HTS OD600	rRNA inh HTS RFP	FGF22 binding
Cc1cc(C)c(NN=c2c(=O)c3ccccc3c2=O)c(C)c1	2	-5.1	0.67	.	6	3.0	.	.	.	.
CCOC(=O)c1sc(NC(=O)CN2C(=O)NC3(CCC(C)CC3)C2=O)c(C(=O)OCC)c1C (centres undefined)	.	-0.8	0.66	-2.8	3	-0.4	6	-6	-4.2	i
Cc1n[nH]c(C)c1C(=O)CC1(O)C(=O)N(Cc2ccccc2)c2ccc(Br)cc21 (centres undefined)	16	0.2	0.7	.	-5	3.7	.	.	.	.
Cc1ccc(Sc2ncccc2COC(=O)NC(C)C)cc1	-10	0.4	0.65	-0.7	-3	-0.2	-11	-9	-0.5	i
NC(=O)c1oc2ccc(Cl)cc2c1N	-14	0.3	0.71	.	-9	-171	.	.	.	.
COc1ccccc1C(=O)N1N=C(c2ccc(NS(C)(=O)=O)cc2)CC1c1cccs1 (centres undefined)	4	0.1	0.65	0.4	-3	2.2	-12	1	6.2	i
CC1OC2C(OC1C)N(S(C)(=O)=O)CCN2S(C)(=O)=O (centres undefined)	-12	-0.6	0.66	7.7	0	5.5	16	7	-5.6	i
Cc1ccc(S(=O)(=O)N(CC(=O)Nc2ccccc2-c2ccccc2)c2ccc(C)cc2C)cc1	46	0.8	0.66	.	5	2.5	.	.	.	.
Cc1ccc(-n2nc(C)c3c2OC(N)=C(C#N)C3c2ccc(F)cc2)cc1 (centres undefined)	8	0.0	0.75	.	4	5.5	.	.	.	.
COc1ccc(-n2c(C)c(C)c3c(N)ncnc32)cc1	-17	-0.6	0.67	-9.7	-11	2.3	4	-24	-2.8	i

Some of the compounds tested, so the mix of outcomes need not match the whole.
